Screens deposited in PubChem BioAssay by National Center for Advancing Translational Sciences (NCATS).
miR-21 FLuc: miR-21 reporter, rising signal; Potency, µM (top dose mostly 38.3 µM), inactives show at the highest dose reporter change, positive = more light; 340,000 tested, under 10 active; HeLa miR-21 FLuc reporter, luciferase, 48 h; active = well fitted rising curve with a large enough effect; inconclusive = small, poorly fitted or top-dose-only effect; inactive = no such curve, though single readings can be large or run the other way;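 further: % of control where 0% means no effect; miR-21 action dims this reporter so a rising signal means less miR-21 action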
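Using DMEM plus 10% FBS, HeLa miR-21-FLuc cells are incubated with test compounds (final up to about 40uM) for 48 hours; firefly luciferase signal is then imaged following reagent-mediated lysis.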
* marks the source's active call; other numbers are inactive results; ? = inconclusive. The list is partial; the hit share may differ from the screen's.

SMILES | miR-21 FLuc
CCC1(C)Cc2c(sc3nc(SC)n(-c4ccc(C)cc4)c(=O)c23)CO1 (stereo not drawn) | -2.2%
Cc1cccc(CNC(=O)CN2C(=O)CCn3nc(-c4cn(C)c5ccccc45)cc32)c1 | 0.7%
CCOC(=O)c1ccc(Nc2nc3ccccc3n3c(C)nnc23)cc1 | 12.9%
NC(=O)c1c(NC(=O)c2cc(-c3ccc(F)cc3)on2)sc2c1CCCC2 | -2.9%
O=C(O)CC1c2ccccc2CCN1C(=O)Nc1cc(Cl)ccc1Cl (stereo not drawn) | -6.3%
COc1ccc(NC(=O)Cn2c(CCC(=O)O)ccc2-c2ccccc2)cc1Cl | -3.2%
Cc1ccc(S(=O)(=O)c2nnn3c2nc(NCc2ccccc2)c2sccc23)cc1 | -6.2%
COc1ccc(N2CCN(S(=O)(=O)c3csc(C(N)=O)c3)CC2)cc1 | 3.9%
O=C(CSc1oc(-c2cccs2)nc1S(=O)(=O)c1ccccc1)Nc1ccc(F)cc1 | 2.6%
COc1ccc(CC(=O)Nc2ccc3nc(Nc4ccc(OC)cc4)cc(C)c3c2)cc1 | -12.2%
CC(C)Oc1ccc(CNC(=O)CCCN2C(=O)c3cccnc3Oc3ccc(Cl)cc32)cc1 | 6.4%
COc1ccc(NC(=O)Cn2c(=O)cc(C)c3c(C)nn(-c4cccc(Cl)c4C)c32)cc1OC | -9.1%
COc1ccc(NC(=O)CSc2nc(-c3cccs3)cc(C(F)(F)F)n2)c(OC)c1 | 1.3%
CCOC(=O)C1CCN(c2csc3ccc(C)cc3c2=O)CC1 | -27.4%
CCN(CC)C(=O)c1ccc(Nc2nnc(-c3ccc(C)c(S(=O)(=O)NC)c3)c3ccccc23)cc1 | 15.9%
CCOc1ccc(NC(=O)CSC2=Nc3ccccc3C3=NC(CCC(=O)NCc4cccs4)C(=O)N23)cc1 (stereo not drawn) | -8.0%
CCCCc1ccc(NC(=O)c2cc3c(=O)n4ccccc4nc3s2)cc1 | -0.9%
Cc1coc2c1c(C)cc1oc(=O)c(CC(=O)NCc3ccc(Cl)cc3)c(C)c12 | 8.8%
COc1cc2[nH]c(C(=O)Nc3ccc(F)cc3)cc2c(OC)c1OC | 17.7%
O=C(Nc1ccccc1)N(Cc1ccc(F)cc1)c1ccccn1 | 10.6%
COc1ccc(CCNC(=O)c2ccc(Cn3c(=O)c4ccccc4n(Cc4ccccc4Cl)c3=O)cc2)cc1OC | 0.2%
COc1cccc(CNC(=O)c2ccc3c(c2)nc2n3CCCCC2)c1OC | -41.3%
CCOc1ccccc1-n1nnc(-c2nc(-c3ccccc3C)no2)c1C | -34.0%
CN(C)C(=O)c1c(NC(=O)c2ccccc2F)sc2c1CCCC2 | -3.8%
N#Cc1ccccc1NC(=O)C(=O)NCC(c1cccnc1)N1CCN(c2ccccc2)CC1 (stereo not drawn) | 8.9%
Cc1ccsc1CN(C(=O)c1oc2cc(Br)ccc2c1C)C1CCS(=O)(=O)C1 (stereo not drawn) | 21.9%
CC(C)c1ccc(CN(Cc2ccco2)c2cnc(S(C)(=O)=O)nc2C(=O)Nc2ccccc2)cc1 | 12.1%
O=S(=O)(NCc1ccccc1Cl)c1ccc(-c2cnc(C3CC3)o2)cc1 | 24.6%
COc1ccc(-n2c(-c3ccc(Cl)cc3)cc3c2CC(C)(C)CC3=O)c(OC)c1 | 16.9%
COc1ccc(-c2nc3c(c(SCc4ccc(Br)cc4)n2)Cc2c(CO)cnc(C)c2O3)cc1 | 0.0%
Cc1ccc(NC(=O)CSc2nnc(COc3ccc(Cl)cc3)o2)c(C)c1 | 4.9%
CCOC(=O)Cn1c(-c2cccs2)cc2cc(Cl)ccc21 | -0.9%
O=C(Nc1cc(-c2nc3ccccc3o2)ccc1Cl)c1cccc2c(Cl)cccc12 | -20.0%
COc1ccccc1-c1cc(C(F)(F)F)nc(S(=O)(=O)CCCC(=O)Nc2ccccc2F)n1 | ?
CCOC(=O)C(Cc1c[nH]c2ccccc12)NC(=O)COc1ccc(Cl)c(C)c1 (stereo not drawn) | -3.6%
CCOc1ccc(CCNC(=O)c2sc3nc4n(c(=O)c3c2C)CCCC4)cc1OCC | -10.2%
COC(=O)c1ccccc1NC(=O)CCc1c(C)nc2cc(-c3ccc(Cl)cc3)nn2c1C | 6.7%
Cc1cc(C)c2nc(N(Cc3cccnc3)C(=O)c3cccs3)sc2c1 | -13.9%
CC1(C(=O)Nc2cccc(C(F)(F)F)c2)Cc2ccccc2C(=O)O1 (stereo not drawn) | -2.3%
Cc1ccccc1Nc1c(-c2c[nH]c3ccccc23)nc2cccc(C)n12 | -50.8%

Entries above that contain a thiophene ring, fused or not, in the order listed:
SMILES | miR-21 FLuc
CCC1(C)Cc2c(sc3nc(SC)n(-c4ccc(C)cc4)c(=O)c23)CO1 (stereo not drawn) | -2.2%
NC(=O)c1c(NC(=O)c2cc(-c3ccc(F)cc3)on2)sc2c1CCCC2 | -2.9%
Cc1ccc(S(=O)(=O)c2nnn3c2nc(NCc2ccccc2)c2sccc23)cc1 | -6.2%
COc1ccc(N2CCN(S(=O)(=O)c3csc(C(N)=O)c3)CC2)cc1 | 3.9%
O=C(CSc1oc(-c2cccs2)nc1S(=O)(=O)c1ccccc1)Nc1ccc(F)cc1 | 2.6%
COc1ccc(NC(=O)CSc2nc(-c3cccs3)cc(C(F)(F)F)n2)c(OC)c1 | 1.3%
CCOc1ccc(NC(=O)CSC2=Nc3ccccc3C3=NC(CCC(=O)NCc4cccs4)C(=O)N23)cc1 (stereo not drawn) | -8.0%
CCCCc1ccc(NC(=O)c2cc3c(=O)n4ccccc4nc3s2)cc1 | -0.9%
CN(C)C(=O)c1c(NC(=O)c2ccccc2F)sc2c1CCCC2 | -3.8%
Cc1ccsc1CN(C(=O)c1oc2cc(Br)ccc2c1C)C1CCS(=O)(=O)C1 (stereo not drawn) | 21.9%
CCOC(=O)Cn1c(-c2cccs2)cc2cc(Cl)ccc21 | -0.9%
CCOc1ccc(CCNC(=O)c2sc3nc4n(c(=O)c3c2C)CCCC4)cc1OCC | -10.2%
Cc1cc(C)c2nc(N(Cc3cccnc3)C(=O)c3cccs3)sc2c1 | -13.9%

The listing continues.
SMILES | miR-21 FLuc
CCOc1ccc(NC(=O)c2cc(S(=O)(=O)N3CCOCC3)ccc2F)cc1 | 2.0%
Cc1ccccc1Nc1c2c(nc3nncn13)CCC2 | -32.5%
COc1ccc(C)cc1S(=O)(=O)NCC(c1ccc(N(C)C)cc1)N1CCc2ccccc21 (stereo not drawn) | -0.6%
CCc1ccccc1N1CC(c2nc3ccccc3n2CCCCOc2ccccc2)CC1=O (stereo not drawn) | ?
Cc1c(Cl)cccc1Nc1nc2ccc(C(=O)c3ccccc3)cc2n2cnnc12 | -8.6%
Cc1c(CCNC(=O)c2ccc(C(C)(C)C)cc2)sc2nc(-c3ccc(F)cc3)nn12 | -6.1%
CCOc1ccc(NC(=O)CC2C(=O)N(c3ccc(C)cc3)C(=O)N2CCC2=CCCCC2)cc1 (stereo not drawn) | -19.8%
O=C(CCCCCn1c(=O)c2sccc2n(Cc2ccc(Cl)cc2)c1=O)NCc1ccc2c(c1)OCO2 | -14.8%
Cc1ccc(CSCc2ccc(C(=O)NCCc3ccc(Cl)cc3)o2)cc1 | 20.2%
O=C1C2=C(Nc3ccccc3SC2c2ccc(C(F)(F)F)cc2)c2ccccc21 (stereo not drawn) | ?
O=C(NCc1ccccc1Cl)C1=Cc2cc(Br)ccc2OC1 | ?
CC(C)c1ccc(C(=O)Nc2cc(-c3ccccc3F)nn2-c2ccccc2)cc1 | -16.6%
CCn1c(C)c(C)c2cc(C(=O)NCCc3cc(OC)ccc3OC)ccc21 | -0.7%
Cc1ccc(NC(=O)CN2C(=O)CSc3ccc(S(=O)(=O)N(C)C)cc32)c(C)c1 | 0.6%
CC1Cn2c(C(=O)NCCc3ccc(Cl)cc3)cc3cccc(c32)S1 (stereo not drawn) | -4.4%
Cc1ccc2onc(CC(=O)N3CCN(c4ccc(Cl)cc4)CC3)c2c1 | -11.6%
CCOC(=O)c1ccc(NC(=O)c2cn3c4c(ccc(Cl)c4c2=O)OC(C)C3)cc1 (stereo not drawn) | 2.6%
COc1ccc(-c2ccc(NS(=O)(=O)c3ccc(C(C)=O)cc3)cc2)nn1 | -0.2%
Cc1cccn2c3c(c(=O)nc12)C(c1cccc(F)c1)CC(=O)N3 (stereo not drawn) | 0.1%
COc1ccc(CC(=O)Nc2sc3c(c2C(=O)Nc2ccc(C)cc2)CCCCC3)cc1 | -25.9%
COC(=O)c1cnc(NCc2ccc(F)cc2)c2ccccc12 | -1.2%
Cc1ccc(CSCCC(=O)N2CCN(c3cc(C)ccc3C)CC2)cc1 | 24.5%
Cc1ccc(C)c(S(=O)(=O)n2nc(C)c(S(=O)(=O)N3CCC(C)CC3)c2C)c1 | -0.4%
CC(NC(=O)c1cccc(NC(=O)c2nsc3ccccc23)c1)c1ccccc1 (stereo not drawn) | -6.7%
CC(=O)N1c2ccccc2C(=O)C1N1CCN(c2cccc(Cl)c2)CC1 (stereo not drawn) | 17.7%
Cn1c(CNC(=O)CSc2n[nH]c(-c3ccccc3)n2)nc2ccccc21 | 5.1%
COCCCN1C(=O)c2[nH]nc(-c3ccccc3O)c2C1c1ccc(OC)cc1 (stereo not drawn) | -10.9%
Cc1ccccc1CNC(=O)c1ccc(CN2CC(=O)N3CCCCC3C2=O)cc1 (stereo not drawn) | 6.5%
Cc1ccc2c(=O)c(C(=O)c3ccccc3)cn(CC(=O)Nc3ccc(C)c(Cl)c3)c2n1 | -5.1%
COC(=O)c1ccc(NC(=O)Cc2coc3cc(C)ccc23)cc1 | -10.3%
Cn1c(SCc2ccc(F)cc2)nc2ccc(C(=O)NCc3ccc(Cl)cc3)cc21 | 1.0%
COc1cc(NC(=O)c2cn(C3CCCC3)c(=O)c3c2c2ccccc2n3C)cc(OC)c1OC | 10.2%
COc1ccc(CNC(=O)C(=O)NCC(c2cccs2)S(=O)(=O)c2cccs2)cc1 (stereo not drawn) | 4.9%
CCN1C(=O)c2ccccc2S(=O)c2ccc(C(=O)N3CCN(c4cccc(C)c4)C(C)C3)cc21 (stereo not drawn) | ?
CCCCNC(=O)C(CC)Sc1nnc(-c2ccc(F)cc2)c(-c2ccc(F)cc2)n1 (stereo not drawn) | 15.2%
COc1ccc(-n2c(=O)c3c4c(sc3n(Cc3cc(C)ccc3C)c2=O)CN(C(C)=O)CC4)c(OC)c1 | 21.8%
COc1ccc(C(=O)Nc2ccccc2C(=O)OCc2cc(=O)n3nc(C4CC4)sc3n2)cc1 | 0.3%
CN(C)c1ccc(CNC(=O)c2ccc3nc(CCc4ccccc4)oc3c2)cc1 | -20.2%
Clc1ccc(-c2noc3ncnc(NC4CCCCC4)c23)cc1 | -18.9%
CC(C)(C)c1ccc(OCCSc2nc(-c3cccs3)nc3cc(=O)[nH]n23)cc1 | -11.7%
COc1ccc(C)cc1NC(=O)c1cc2c(=O)n3cccc(C)c3nc2s1 | 4.0%
Cc1c(C(=O)NCc2cccc(Cl)c2)sc2nc3n(c(=O)c12)CCC3 | -5.4%
CCC(=O)N1CCc2cc(CNC(=O)C(CC)c3ccccc3)ccc21 (stereo not drawn) | 8.6%
O=C(CC1C(=O)N(c2ccccc2)C(=O)N1CCc1cccs1)Nc1ccc(Cl)cc1 (stereo not drawn) | 14.3%
CCOC(=O)c1[nH]c2c(c1Cc1ccccc1C)C(=O)CC(c1cc(OC)ccc1OC)C2 (stereo not drawn) | 2.1%
CCN(CC)c1ccc(NC(=O)C2CCCN(S(=O)(=O)c3ccc4c(c3)oc(=O)n4C)C2)c(C)c1 (stereo not drawn) | -0.4%
CCOC(=O)c1cccc(NC(=O)CCS(=O)(=O)c2ccc3c(c2)CCN3C(=O)CC)c1 | -3.3%
Cn1cnc(S(=O)(=O)N2CCCC(C(=O)NCc3ccc(F)cc3)C2)c1 (stereo not drawn) | -0.3%
CCOC(=O)c1cnc2c(C)cc(C)cc2c1Nc1ccc(N2CCOCC2)cc1 | -4.4%
O=c1cc(-c2ccc(F)cc2)nc(SCc2nc(-c3cccc(Cl)c3)no2)[nH]1 | -5.2%
(further entries)
SMILES | miR-21 FLuc
COc1ccccc1NCc1nnc2n1CCCCC2 | -0.9%
CSc1cccc(NC(=O)CN(C)S(=O)(=O)c2ccc3c(c2)CCCN3C(C)=O)c1 | 20.6%
Cc1ccccc1Nc1nc(N)c(C(=O)c2ccccc2Cl)s1 | 27.0%
O=C(CSc1ccccc1)NCc1ccc2c(c1)CCN2C(=O)c1ccc(Cl)cc1 | ?
O=C(NCCCc1ccccc1)c1nn(-c2ccccc2)nc1CO | 29.1%
Cc1oc2ncn(C)c(=O)c2c1C(=O)N(C)c1ccccc1F | -2.3%
Cc1cc2[nH]c(=O)c(=O)[nH]c2cc1S(=O)(=O)NCc1ccc(F)cc1 | -9.3%
Cc1ccc(NC(=O)c2sc(-n3nc(C)c(Cc4ccc5c(c4)OCO5)c3C)nc2C)cc1Cl | -1.2%
COc1cccc(NC(=O)Cn2c(=O)ccc3cc(S(=O)(=O)N4CCC(C)CC4)ccc32)c1 | 11.2%
COc1cc(OC)c(NC(=O)N2CCC(CN3CCOCC3)CC2)cc1Cl | 3.2%
CSc1nc2c([nH]c3ccccc32)c(=O)n1-c1ccc(F)cc1 | -5.6%
O=C(NCCc1ccc(Cl)cc1)C1CCN(S(=O)(=O)c2ccc3[nH]ccc3c2)CC1 | 15.4%
CCc1ccc(Cn2nnc3c(=O)[nH]c(C4CCCN(C(=O)c5cccc(Cl)c5)C4)nc32)cc1 (stereo not drawn) | -23.8%
Cc1ccccc1OC(=O)c1cc(-c2ccc3c(c2)OCCO3)on1 | 1.2%
CC1CCN(Cc2c(O)ccc3c(=O)c(-c4ccc(Cl)cc4)c(C(F)(F)F)oc23)CC1 | -0.8%
CCOc1ccc(CN(CCc2ccc3c(c2)OCO3)Cc2cc(OC)cc(OC)c2)cc1 | 4.7%
CCCSCCCNC(=O)c1sc2nc(C)cc(C)c2c1-n1cccc1 | -7.5%
